# High-throughput results from PubChem.
# Sfp inh: Sfp phosphopantetheinyl transferase inhibition; Q9F4F7; Biochemical Sfp PPTase activity, qHTS; Potency, µM, inactives show max response, negative = inhibition, hits mostly inhibitors; actives 3.5% (n = 310,000); AID 1490; active = well fitted inhibition curve with a large enough effect; inconclusive = small, poorly fitted or top-dose-only effect, or another doubt; inactive = no such curve, though single readings can be large or run the other way;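 also: the enzyme is Sfp with the accession as filed and its product quenches rhodamine fluorescence; potency is read from the fitted curve at half-maximal effect; 0% = enzyme reaction without inhibitor and -100% = no enzyme wells; top concentration of the series not given in the record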
#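 Reaction rates are the 30-min fluorescence difference (ex 525, em 598 nm) in wells containing 15 nM Sfp, 5 uM rhodamine-CoA and 12.5 uM BHQ-2-YbbR at pH 7.6 with 10 mM MgCl2.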
# gsp ag: activates gsp, the McCune-Albright syndrome mutation. actives 0.13% (n = 340,000). Potency, µM (top dose mostly 76.9 µM), inactives show top-dose activation (cAMP increase), usual class: activators. gsp mutant cells, cAMP HTRF, 30 min; control for the full effect not named in the record; active = well fitted activation curve with a large enough effect; inconclusive = small, poorly fitted or top-dose-only effect, or another doubt; inactive = no such curve, though single readings can be large or run the other way; cell line not stated here;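 also: phosphodiesterase inhibitor Ro 20-1724 added with compounds to block cAMP breakdown; potency is read from the fitted curve at half-maximal effect; nearly all actives have a fitted effect of over 60% in size; about a fifth of the inactives were tested at one dose only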
#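 Cells stably selected in G418 were plated at 2000/well, grown 16-24 hr, then given compounds in DMSO with the PDE inhibitor […] (300 uM solution added) for 30 min at 37C; cAMP was read by HTRF.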
# gsp antagonist: gsp mutant antagonism | Potency, µM (series often up to 76.9 µM), without a hit: at the top dose activity change, negative = inhibition, most hits filed as inhibitors | actives 0.4% (n = 340,000) | gsp-mutant cells, cAMP HTRF, 30 min; control for the full effect not named in the record; active = falling curve of any shape with a large fitted effect; inconclusive = falling curve, mostly with a smaller effect; inactive = flat or rising curve; cell line not stated here;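 also: intracellular cAMP measured with PDE inhibitor Ro 20-1724 present during compound exposure; potency is read from the fitted curve at half-maximal effect; % is scaled to controls: 0 for no effect and ±100 for the full control effect; nearly all actives have a fitted effect of over 65% in size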
#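 HTRF cAMP measurement after 30 min RT detection following 30 min, 37C compound treatment alongside […] (added as 300 uM solution) in G418-selected cells seeded at 2000/well and grown 16–24 h.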
# D2 PAM: positive allosteric modulators of human D2 dopamine receptor | P14416 | DiscoveRx D2 beta-arrestin cells, luminescence, 90 min; 100% = 57 uM dopamine signal | potentiation, % (no concentration beside the values) | actives 0.23% (n = 360,000); active = potentiation of 50% or more; inconclusive = 30% to 50%; inactive = 30% or less;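 also: compound concentration not given in the record; tested on top of an EC20 dose of dopamine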
#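 D2 cells co-treated with compound plus 50 nM dopamine (EC20) for 90 min at 37 deg C to detect potentiation. Beta-arrestin recruitment was read as enzyme-fragment luminescence after 1 h at ambient temperature. Full response was set by 57 uM dopamine.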
# Menin-MLL FL inh: menin-MLL binding inhibition, fluorescein peptide; Fluorescence polarization, fluorescein-MLL peptide displacement from menin; 290,000 tested, under 10 active; FP activity change, % at 61.4 µM; inconclusive = falling polarisation curve, or a change in total fluorescence; inactive = total fluorescence flat and polarisation flat or rising; no compound was filed as active; the % refers to the polarisation; negative = inhibition;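 also: % of control where 0% means no effect; inhibitors lower the polarisation; unlabelled MLL peptide was the positive control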
# ClpP mod: qHTS Assay for Activators of ClpP; Potency, µM (doses to about 57.5 µM), without a hit: top-dose activity change, negative = active; actives 1.9% (n = 340,000); AID 651965, 2013; ATP-dependent Clp protease proteolytic subunit (Bacillus subtilis (strain 168)), P80244; purified B. subtilis ClpP, FRET peptide cleavage, 20 min; active = well fitted falling curve with a large enough effect; inconclusive = small, poorly fitted or top-dose-only effect; inactive = no such curve, though single readings can be large or run the other way; also: potency is read from the fitted curve at half-maximal effect; the source files actives as falling curves though it sought activators and does not explain the sign; nearly all actives have a fitted effect of over 65% in size; many hits overshoot -100%
# Target sequence (P80244 whole entry, looked up): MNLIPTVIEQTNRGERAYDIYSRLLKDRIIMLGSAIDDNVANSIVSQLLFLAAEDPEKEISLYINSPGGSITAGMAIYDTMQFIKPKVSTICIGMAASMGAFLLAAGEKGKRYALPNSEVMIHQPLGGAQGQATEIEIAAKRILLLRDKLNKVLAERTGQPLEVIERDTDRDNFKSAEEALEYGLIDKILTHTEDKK
#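 ClpP 10 microg/mL final, pH 8 Tris/KCl buffer with BSA, glycerol, Tween-20; compound pinned in; FRET-FV substrate; RT 20 min; Ex320/Em430; ΔFRET vs ADEP 5.8 microM, DMSO, no enzyme.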
# TRPV1 PAM: enhances activation of the human vanilloid receptor TRPV1. TRPV1-expressing cells, Fluo-8 calcium influx, capsaicin EC20 potentiation; host cell line not named in the record; control for the full effect not named in the record. actives 0.02% (n = 320,000). potentiation, % at 8.33 µM. AID 540277; active means potentiation above 80%; inconclusive means 30% to 80%; inactive means below 30%; also: 0% is about no effect
# Target sequence (Q8NER1 whole entry, looked up): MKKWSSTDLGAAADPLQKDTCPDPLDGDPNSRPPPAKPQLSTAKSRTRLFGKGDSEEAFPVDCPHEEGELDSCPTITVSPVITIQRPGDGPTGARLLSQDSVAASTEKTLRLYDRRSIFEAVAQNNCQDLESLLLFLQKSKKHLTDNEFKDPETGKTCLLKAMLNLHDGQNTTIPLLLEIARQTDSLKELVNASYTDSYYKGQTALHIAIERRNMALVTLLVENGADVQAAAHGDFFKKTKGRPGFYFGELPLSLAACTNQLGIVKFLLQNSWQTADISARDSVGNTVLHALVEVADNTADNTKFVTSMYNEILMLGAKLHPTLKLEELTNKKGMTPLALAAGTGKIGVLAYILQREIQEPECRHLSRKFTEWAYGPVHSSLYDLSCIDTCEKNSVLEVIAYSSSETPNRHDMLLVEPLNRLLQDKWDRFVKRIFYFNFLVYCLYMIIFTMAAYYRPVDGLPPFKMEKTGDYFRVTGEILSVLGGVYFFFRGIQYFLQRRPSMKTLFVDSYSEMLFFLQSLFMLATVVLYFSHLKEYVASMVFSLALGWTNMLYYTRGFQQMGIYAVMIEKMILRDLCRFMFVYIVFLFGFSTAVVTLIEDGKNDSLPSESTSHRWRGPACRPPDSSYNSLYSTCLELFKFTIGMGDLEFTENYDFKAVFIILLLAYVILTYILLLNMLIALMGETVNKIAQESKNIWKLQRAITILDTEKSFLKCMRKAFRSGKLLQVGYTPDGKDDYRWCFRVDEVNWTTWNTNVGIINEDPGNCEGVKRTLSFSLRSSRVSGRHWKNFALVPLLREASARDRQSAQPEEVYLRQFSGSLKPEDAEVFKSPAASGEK
#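 Cells expressing TRPV1 were dye-loaded with Fluo-8 and read kinetically: 10 s baseline, 3 min after compound (agonist portion), then 2 min after EC20 capsaicin (allosteric enhancer portion). Calcium-bound dye fluorescence at 480/520 nm.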
# Starred values were filed as active, the others as inactive; ? = inconclusive; . = not tested or not shown; & = joins results of further samples; [ ] = another dose, or the depositor's remark.
Compound	Sfp inh	gsp ag	gsp antagonist	D2 PAM	Menin-MLL FL inh	ClpP mod	TRPV1 PAM
CCOC(=O)CSc1nnc(NC(=O)c2cccc([N+](=O)[O-])c2C)s1	20%	-3%	-18%	-8	2.9	0.7%	1
COCC(=O)O[C@]1(CCN(C)CCCc2nc3ccccc3[nH]2)CCc2cc(F)ccc2[C@@H]1C(C)C	-16%&-23%	.	7%	-26	-2.0&4.1&0.9	1.7%	-9
O=C(COc1ccccc1Cl)Nc1ccc2c(c1)C(=O)NC2=O	4%	6%	-6%	3	.	?	-22
Cc1c(CC(=O)O)c(=O)oc2cc(OCc3ccc(Cl)cc3)ccc12	7%	6%[15.4 µM]	?	-7	0.2	0.4%	0
COc1cc(C2N(c3ccccn3)C(=O)C3CCCN32)cc(OC)c1OC (stereo unspecified)	18%	-13%	9%	2	-0.5	1.6%	2
COc1ccc(CNC(=O)COc2ccc(S(=O)(=O)N3CCCCC3)cc2Cl)cc1	5%	-89%[inhibitor]	?	-6	.	-6.0%	3
CN(C(=O)CSc1nc(-c2ccccc2)cn1N)C(c1ccccc1)c1ccccc1	8%	-24%	-6%	-17	4.5	-9.8%	15
O=C(CCc1ccccc1)NNC(=O)c1ccc(Br)cc1	11%	5%	-1%	-3	0.4	.	-6
COc1ccc([C@H]2CC(=O)C=C(c3cccc(CO)c3)C2)cc1	.	?	-16%	2	.	1.0%	6
CCN(CC)c1ccc(C(=O)N2CCN(Cc3ccccc3)CC2)cc1	0%	1%	80%[activator]	-20	-2.4	-1.6%	-32
N#Cc1ccccc1Oc1ccc(S(=O)(=O)N2CCCCC2)cn1	.	8%	-2%	-20	.	0.9%	-12
Nc1ccc(S(=O)(=O)NCC(=O)OC2CCOC2=O)cc1[N+](=O)[O-] (stereo unspecified)	.	-5%	7%	-1	.	-1.1%	1
Cc1nn(CC(=O)Nc2ccc3c(c2)nc2n3CCN(C3CCCCC3)C2)c(=O)c2ccccc12	-21%	20%[15.4 µM]	-70%	-5	-1.1	.	3
COc1ccc2c(c1OC)C(=O)N(c1ccccn1)C2	0%	-86%[inhibitor]	4%	-11	-0.8	?	8
Cc1ccc(CNC(=O)CCCCCNc2nc(=S)[nH]c3ccccc23)cc1	-20%	.	.	.	-3.2	.	?
C[C@@H](NC(=O)C1(c2ccccc2)CCN(C(=O)OC(C)(C)C)CC1)C(=O)N[C@@H](C(=O)O)c1ccccc1	21%	.	1%	-36	-2.7	-1.0%	19
COCc1cc(C)nc(SCC(=O)Nc2ccc3c(c2)n(C)c(=O)n3C)c1C#N	5%	?	-12%	3	-5.0	-1.8%	-13
NCCCCNCCCN	?	.	4%	12	4.6&-6.6&-3.4&4.6&-1.3	0.6%	12
CC(=O)c1cn(CC(=O)Nc2ccccc2C)c2ccccc12	11%	5%	6%	-14	-2.9	-4.0%	-4
O=C(CC(c1ccccc1)c1ccccc1O)N1CCCC1 (stereo unspecified)	0%	-20%	-3%	1	-4.4	-0.3%	-10
COc1ccc2oc(=O)c(-c3csc(Nc4cccc(O)c4)n3)cc2c1	?	-24%	?	-14	14	0.4%	3
COc1ccc(NC(=O)c2cc(-c3cc(C)cc(C)c3O)n[nH]2)cc1Cl	20%	-41%[inhibitor]	?	?	1.6	0.2%	-16
O=C(Cc1c(O)c2ccccc2[nH]c1=O)NC1CCCCCCC1	0%	-22%	3%	-11	2.5	32µM*	-17
CCCNC(=S)N1CCC(C(=O)c2ccc(F)cc2)CC1	16%	20%	-16%	-2	1.2	.	-26
O=C1c2cccnc2C(Nc2ccccc2)N1Cc1ccco1 (stereo unspecified)	50µM*	-5%	8%	-8	-4.4	1.1%	11
Cc1ccc(S(=O)(=O)NCCN=C(CN2CCCC2)NS(=O)(=O)c2ccc(C)cc2)cc1	20%	-41%[inhibitor]	2%	-9	6.5	5.1%	4
COc1ccc(Nc2sc(C(=O)Nc3cccc(Cl)c3)c(N)c2C(=O)Nc2ccccc2OC)cc1	6%	.	.	.	5.5	.	10
C[C@]12CCC(=O)CC1=CCC1C3CC=C(C#N)[C@@]3(C)CC[C@@]12O (stereo partly specified)	9%	-18%	2%	-3	-8.0	0.0%	-3
COc1ccc([N+](=O)[O-])cc1C1NN=C(c2ccccc2O)S1 (stereo unspecified)	14%	11%	3%	-7	-1.7	-4.3%	1
CCOc1cccc(NC(=O)c2cnccc2C(F)(F)F)c1	-1%	0%[15.4 µM]	3%	-5	4.7	.	-5
CCOc1ccccc1CN1CCN(Cc2cn(C)nc2-c2ccccc2)CC1CCO (stereo unspecified)	14%	2%	3%	-18	-0.5	-0.9%	4
O=C(Cn1cnc2ccccc2c1=O)Nc1ccc(S(=O)(=O)N2CCCC2)cc1	16%	0%[15.4 µM]	-1%	-1	-3.3	.	-10
CC(=O)Nc1ccc(NC(=O)CN(c2cccc([N+](=O)[O-])c2)S(C)(=O)=O)cc1	23%	9%	15%	-3	1.0	1.2%	14
O=C(Nc1ccccc1C(=O)Nc1ccccc1)c1cccs1	15%	?	-1%	-2	-5.1	.	6
Cc1c(OC(C)C(=O)N[C@H](C(=O)O)c2ccccc2)ccc2c3c(c(=O)oc12)CCCC3 (stereo partly specified)	6%	.	-2%	-4	-5.4	5.0%	-5
C[C@H](CO)N1C[C@H](C)[C@@H](CN(C)Cc2ccc3c(c2)OCO3)Oc2c(NC(=O)C3CCCCC3)cccc2C1=O	.	.	?	-7	.	0.0%	.
Cc1ccc(N(CC(=O)NC2CCCC2)C(=O)Cn2nnc(-c3ccccc3F)n2)cc1	19%	-11%[15.4 µM]	-10%	-7	2.6	.	3
COc1cc(S(=O)(=O)NCC2(N3CCCCC3)CCCCC2)ccc1NC(C)=O	.	20%	2%	-8	.	-0.5%	0
Cc1cc(OCC(=O)N2CCC(O)(c3ccc(Cl)cc3)CC2)c2c(C)cc(=O)oc2c1	7%	-39%[inhibitor]	5%	9	-3.6	-14%	-11
Cc1cc(C)nc(NC(=O)C(c2ccccc2)c2ccccc2)n1	8%	-2%	-2%	-1	1.1	-0.5%	-1
Cc1cccc(C(C(=O)NCc2ccc(F)cc2)N(C(=O)c2csnn2)C2CC2)c1 (stereo unspecified)	13%	-37%[inhibitor]	2%	0	?	.	-1
CCCOc1ccc(C(=O)Nc2ccc(N3CCN(C(=O)c4ccco4)CC3)cc2)cc1	8%	-4%[15.4 µM]	9%	28	.	-1.4%	-10
O=C(Cn1nc(-c2ccccc2)ccc1=O)N1CCCCC1	13%	-26%[15.4 µM]	10%	-7	.	.	0
COc1ccc(Cl)cc1NC(=O)COC(=O)C1CC(=O)N(Cc2ccccc2)C1 (stereo unspecified)	.	-2%	-12%	-11	.	-1.6%	.
COc1cc(OC)cc(C(=O)Nc2ccc(S(=O)(=O)Nc3cc(C)on3)cc2)c1	26%	2%	-17%	-10	6.9	4.4%	7
Cc1ccc2nc(-c3ccc(N)cc3)sc2c1	2%	-9%	1%	-8	0.1	.	8
Cc1cccc(C)c1OCC(O)CNS(=O)(=O)c1ccccc1C(=O)N1CCCCC1 (stereo unspecified)	-2%	4%	-12%	-3	-1.2	-1.3%	16
O/N=C1\CC(O)Cc2nonc21 (stereo unspecified)	16%	20%	9%	-5	2.8	-0.6%	-8
CN1CCN(S(=O)(=O)c2cccc(C(=O)NC3(C)CCS(=O)(=O)C3)c2)CC1 (stereo unspecified)	.	-7%	8%	-22	.	4.1%	1
CN(Cc1ccccc1)S(=O)(=O)c1ccc(C(=O)Nc2nnc(C3CC3)o2)cc1	20%	-20%	-14%	3	3.7	0.0%	9
CSc1ccc(N/N=C(/C#N)S(=O)(=O)C(C)(C)C)cc1	1%	19%[15.4 µM]	-16%	-10	-2.1	.	?
Cc1ccc(-c2nc3cccnc3s2)cc1NC(=O)c1ccco1	.	4%	-6%	-4	.	-13%	.
CC1CC(C)CN(C(=O)c2ccc3c(c2)OCCO3)C1 (stereo unspecified)	.	-13%	0%	-9	.	0.7%	-7
O=C(c1ccccc1)N1CCN(C(=O)c2cc3ccccc3oc2=O)CC1	11%	0%[15.4 µM]	-25%	-4	.	.	6
COc1ccc(/C=C2/NC(=O)N(CC(=O)Nc3cccc(C)c3)C2=O)cc1O	-6%	7%[15.4 µM]	9%	-6	2.6	.	5
Cc1cc(NC(=O)C2C3C(=O)N(Cc4ccc(Cl)cc4)C(C(=O)NC(C)(C)C)C34C=CC2(C)O4)no1 (stereo unspecified)	5%	4%	5%	-23	-0.8	1.0%	-4
CCCN1CCN(c2ncnc3c2nnn3Cc2ccccc2)CC1	-21%	4%[15.4 µM]	0%	-20	5.3	-2.3%	0
CC(C)(C)c1csc(NC(=O)Cn2c(=O)oc3ccccc32)n1	-13%	10%	-14%[15.4 µM]	-1	0.2	0.3%	-7
CCOc1ccc(Cn2nnc(-c3ccc(S(C)(=O)=O)cc3)n2)cc1OCC	.	?	13%	3	.	-0.8%	5
O=C1N/C(=C/c2cccn2-c2ccccc2)C(=O)N1Cc1ccccc1F	-3%	-14%[15.4 µM]	8%	-21	2.1	-8.7%	1

# The listing continues:
Compound	Sfp inh	gsp ag	gsp antagonist	D2 PAM	Menin-MLL FL inh	ClpP mod	TRPV1 PAM
COc1ccc(S(=O)(=O)Nc2ccc3c(c2)OCO3)cc1Cl	-1%	-31%[inhibitor]	5%	0	6.2	-5.9%	17
O=C(COc1ccc([N+](=O)[O-])cc1)Nc1ccc(N2CCCC2)cc1	-10%	-24%	5%	-2	8.0	0.4%	7
CN(C)/C=C1\C(=O)N(c2ccc(Cl)c(Cl)c2)CS1(=O)=O	0%	7%[15.4 µM]	10%	-4	-1.3	.	6
O=C1NC(c2ccccc2)CCC1(Cl)Cl (stereo unspecified)	-10%	-1%[15.4 µM]	5%	-5	-1.2	0.7%	-12
CN(C)/C=C1/Sc2ccccc2C1=O	9%	-38%[inhibitor]	-20%	-3	1.5	-5.1%	7
